Rango-impB inh: prevents formation of the Rango-importin beta complex | AID 540263 | Rango CFP/YFP FRET sensor + importin beta, 45 min | 0.031% of 340,000 active | Potency, µM (top dose mostly 92.2 µM), for the others: at the top dose inhibition of complex formation | Q14974; active = rising FRET ratio curve, often small or poorly fitted; inconclusive = mostly compound fluorescence or quenching in the first reads; inactive = flat curves in all reads;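 note: potency is the fitted concentration of half-maximal effect; 0% = DMSO wells and 100% = buffer wells lacking importin beta; nearly all actives have a fitted effect of over 15% in size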
Target sequence (Q14974 whole entry, looked up): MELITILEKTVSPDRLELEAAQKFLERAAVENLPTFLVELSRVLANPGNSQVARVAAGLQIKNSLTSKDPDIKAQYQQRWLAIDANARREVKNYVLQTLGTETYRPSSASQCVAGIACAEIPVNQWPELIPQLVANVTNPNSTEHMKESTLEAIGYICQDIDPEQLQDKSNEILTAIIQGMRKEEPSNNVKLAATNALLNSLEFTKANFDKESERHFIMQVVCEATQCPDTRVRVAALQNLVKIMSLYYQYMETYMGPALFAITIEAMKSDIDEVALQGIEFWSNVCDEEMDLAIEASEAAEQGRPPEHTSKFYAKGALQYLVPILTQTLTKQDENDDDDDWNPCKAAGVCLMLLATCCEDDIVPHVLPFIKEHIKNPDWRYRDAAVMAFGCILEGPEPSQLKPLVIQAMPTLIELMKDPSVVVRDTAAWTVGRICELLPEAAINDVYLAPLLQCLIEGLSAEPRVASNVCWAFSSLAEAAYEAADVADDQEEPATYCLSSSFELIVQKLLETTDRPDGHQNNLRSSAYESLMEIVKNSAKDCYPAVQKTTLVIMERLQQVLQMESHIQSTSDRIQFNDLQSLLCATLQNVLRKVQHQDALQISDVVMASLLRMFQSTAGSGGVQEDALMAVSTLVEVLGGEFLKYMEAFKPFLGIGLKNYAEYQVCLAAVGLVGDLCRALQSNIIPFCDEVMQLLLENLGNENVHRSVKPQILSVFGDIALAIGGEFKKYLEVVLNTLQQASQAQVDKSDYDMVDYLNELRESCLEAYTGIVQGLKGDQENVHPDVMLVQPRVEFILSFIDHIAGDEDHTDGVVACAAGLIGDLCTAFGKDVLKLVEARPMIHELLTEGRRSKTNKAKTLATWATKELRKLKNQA
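FRET biosensor (snurportin 1 IBB flanked by EYFP and cerulean), 50 nM, with compound 5 min, then 0.125 microM importin beta in PBS, 1 mM DTT, 0.02% Tween-20, 0.1% BSA. CFP/YFP ratio read after 45 min at room temperature; pre-read flags interference.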
Rango release inh: inhibition of RanGTP-driven Rango-importin beta dissociation | O95149+P62826 | Biochemical FRET Rango-importin beta, RanGTP-induced dissociation | Potency, µM (series often up to 46.1 µM), for the others: at the top dose activity change, negative = inhibition | 0.071% of 340,000 active | AID 540253; active means falling FRET ratio curve, often poorly fitted, with flat reads before Ran was added; inconclusive means other falling curves, or compound fluorescence or quenching; inactive means flat or rising ratio curve;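 note: potency is the fitted concentration of half-maximal effect; % of control where 0% means no effect; nearly all actives have a fitted effect of over 45% in size; -100% = wells without RanGTP and RCC1; the record marks most hits as doubtful in a second field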
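Compounds sat 5 min at room temperature with 0.1 uM Rango biosensor plus 0.25 uM importin beta, then FRET pre-read. RanGTP-RCC1 (0.6 uM Ran, 2mM GTP, 0.2 uM RCC1) added for 45 min, and the CFP/YFP post-read measured blocked complex dissociation.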
GLA inh pH 4.5: blocks human alpha-galactosidase A at pH 4.5; purified enzyme, 4-MU-alpha-Gal fluorescence, pH 4.5; activity change, negative = inhibition, % at 105 µM; 230,000 tested, under 10 active; AID 1467; inconclusive = small, poorly fitted or top-dose-only inhibition, or a rising curve; inactive = flat fitted curve, though single readings scatter; no compound was filed as active;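 note: 0% = full activity with enzyme and -100% = basal without enzyme; dose as in the result columns while the protocol names 77 µM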
miR-21 FLuc: miR-21 reporter, rising signal | HeLa miR-21 FLuc reporter, luciferase, 48 h | Potency, µM (highest dose often 38.3 µM), inactives show top-dose reporter change, positive = more light | 340,000 tested, under 10 active | AID 2288; active = well fitted rising curve with a large enough effect; inconclusive = small, poorly fitted or top-dose-only effect; inactive = no such curve, though single readings can be large or run the other way;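 note: % of control where 0% means no effect; miR-21 action dims this reporter so a rising signal means less miR-21 action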
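HeLa cells endogenously expressing miR-21, stably carrying CMV-driven firefly luciferase with a downstream miR-21 binding site, 2000 cells/well. Titrations up to approximately 40 uM, 48 hours; luciferase luminescence read.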
The depositor's hits bear a star; ? = inconclusive; . = no result given; & = joins results of further samples; [ ] = another dose, or the depositor's remark. An excerpt. The share of hits here may be higher or lower than overall.

SMILES	Rango-impB inh	Rango release inh	GLA inh pH 4.5	miR-21 FLuc
Cc1cccc(C)c1OCC(=O)NC(Cc1c[nH]c2ccccc12)C(=O)O (stereo not given)	1.0%	25%	-11[21.1 µM]	-1%&-14%
CCOC(=O)CN=C/C(C(C)=O)=C(/C)O	-1.9%	4%	2	1%
Cc1nnc(NC(=O)CCSCCC(=O)Nc2nnc(C)s2)s1	-2.7%	6%	4	2%
CC(C)(C)c1ccc(C2(C)NC(=O)N(CC(=O)NCc3cccs3)C2=O)cc1 (stereo not given)	0.7%	7%	-6	-6%
NNC(=O)c1ccc(COc2ccc3c(c2)CCC3)o1	0.8%	21%	-6	-41%
C/C(=N/NS(=O)(=O)c1ccc(F)cc1)c1ccc(NC(=O)c2ccc(C)o2)cc1	-0.9%	2%	8	-38%
CCCn1c(N)c(C(=O)CSc2ncc(C(F)(F)F)cc2Cl)c(=O)[nH]c1=O	-0.3%	-12%	-5	-1%
O=C(Cn1cnc2ccccc2c1=O)NCCC(=O)Nc1ccc2c(c1)OCCO2	2.4%	6%	5	-8%
O=C(N[C@@H](Cc1ccccc1)C(=O)OCc1ccccc1)c1nc[nH]c1C(=O)N1CCNCC1	0.2%	-1%	.	.
O=C1C2C(C(=O)N1/N=C/c1ccc([N+](=O)[O-])o1)C1C=CC2C12CC2 (stereo not given)	-1.8%	-5%	-4	15%
CCN1CCN(C(C)C(=O)Nc2c(C)n(C)n(-c3ccccc3)c2=O)CC1 (stereo not given)	1.1%	0%	4	-1%
O=C1CCCc2c1nc(-c1ccccc1F)n2O	-2.4%	-11%	0	-1%
O=C(CCNS(=O)(=O)c1ccccc1)OCC(=O)c1ccc[nH]1	2.1%	7%	.	.
Cc1ccc(-n2c(C)c(C)c3c(NCCN(C)C)ncnc32)cc1	0.4%	-20%	.	-13%
Cc1ccc(Cl)cc1N1CCN(C(=O)c2ccc(NC3=NC4CS(=O)(=O)CC4S3)cc2)CC1 (stereo not given)	4.4%	-9%	.	0%
Cc1cc(NC(=O)COc2ccccc2C(N)=O)no1	-2.5%	-7%	.	.
CCOc1ccccc1NC(=O)Cn1c(C)cc(COC)c(C#N)c1=O	-1.4%	4%	3	-3%
COc1ccc(C(=O)NNC(=O)C2CCCN(C3CC(=O)N(c4ccccc4)C3=O)C2)cc1 (stereo not given)	4.4%	6%	2	0%
Cc1nn(Cc2ccc(C(=O)N3N=C(C(F)F)CC3(O)C(F)F)cc2)c(C)c1[N+](=O)[O-] (stereo not given)	-1.7%	-6%	1	7%
CC(C)CN(C(=O)CSc1nnnn1C)C1CCS(=O)(=O)C1 (stereo not given)	-4.0%	1%	6	1%
Cc1cc(NC(=O)c2ccc(NC(=O)C(C)C)cc2)no1	-0.9%	-7%	7	-33%
CN(CCOc1ccc(Br)cc1)CC(O)c1ccccc1 (stereo not given)	1.1%	11%	.	-1%
CC(C)CN(C(=O)COC(=O)c1cnccn1)c1c(N)n(Cc2ccccc2)c(=O)[nH]c1=O	-3.2%	-1%	.	.
Cc1c(Cl)cccc1NC(=O)CSc1nc2ncc(Cl)cc2[nH]1	3.7%	18%	.	14%
Cc1c(NC(=O)C2CC(c3c(F)cccc3Cl)=NO2)c(=O)n(-c2ccccc2)n1C (stereo not given)	-1.6%	3%	-6	-5%
O=C(/C=C/c1ccc(F)cc1)Nc1ccc(S(=O)(=O)Nc2ncccn2)cc1	-2.1%	-6%	-7	-16%
COc1ccccc1NCCC(=O)OCC(=O)NC1CCCCC1	-2.8%	1%	7	1%
O=S(=O)(Nc1cccc(S(=O)(=O)N2CCOCC2)c1)c1cccs1	2.1%	10%	.	-2%
O=C(O)COc1ccc(-c2nnn(CC(=O)O)n2)cc1	-4.7%	4%	5	-4%
COc1ccc(SCCN2CCN(C)CCC2=O)cc1	-0.9%	1%	7	-14%
CN(C(=O)CSc1nncc2ccccc12)c1ccccc1	-2.7%	1%	.	.
CNC(=S)Nc1cccc(C(C)=O)c1	-0.4%	-8%	-22	-2%
COc1ccc(NC(=O)N2CCCc3ccccc32)cc1OC	-0.4%	8%	.	-13%
CC(=O)OCC1=C(C(=O)O)N2C(=O)C(NC(=O)C(C)Cn3nc(C)c(Cl)c3C)C2SC1 (stereo not given)	0.8%	-5%	-1[21.1 µM]	0%
O=C(CSCc1ccccc1)NC1CCSC1=O (stereo not given)	-0.3%	-2%	2	-2%
CCOCCn1c(N(C)Cc2ccccc2)nc2c1c(=O)[nH]c(=O)n2C	3.5%	-2%	-4	-7%
O=C1Nc2cc(C(=O)N3CCc4ccccc4C3)ccc2S/C1=C\c1ccccc1	-0.1%	-8%	-8	1%
COc1cccc(C2CC(c3ccccc3Cl)Nc3ncnn32)c1 (stereo not given)	1.3%	-9%	.	.
O=C(NCCO)c1ccc2[nH]c3c(c2c1)CCCC3	?	-16%	-4	-34%
CC(=O)NC(Cc1cccc(F)c1)C(=O)NC1CCN(C(=O)c2ccc(C)cc2)CC1 (stereo not given)	1.9%	4%	9	1%
Cc1ccc(NC(=O)NCc2ccc3[nH]c(C)cc3c2)cc1	0.4%	-14%	-13	-7%
Cc1cc(C)n(CCC(=O)N2CCc3ccccc32)n1	-0.4%	1%	.	-5%
CCC(C)(C)NS(=O)(=O)c1cc(CN2C(=O)c3cccnc3C2=O)ccc1OC	-3.8%	-3%	.	-1%
O=C(N/N=C/c1ccco1)C1CC1c1ccccc1 (stereo not given)	-0.5%	-16%	2	-7%
O=C(Nc1ccc(S(=O)(=O)Nc2ncccn2)cc1)C1=COCCO1	?	-14%	.	.
Cc1ccc(NC(=O)c2ccc(CN3CCc4ccccc4C3)cc2)cc1	1.3%	2%	-5	-20%
C=CCn1cc(/C=C/c2cc[n+](C)cc2)c2ccccc21	?	?	.	?
CCC(C(=O)OC)n1cnc2c(nnn2-c2cccc(OC)c2)c1=O (stereo not given)	?	31%	.	-6%
Cc1ccc(-c2cc(C(F)F)n3ncc(C(=O)N4CCN5CCCC5C4)c3n2)cc1 (stereo not given)	1.0%	3%	-2	-10%
CCOC(=O)C1=C(C)Nc2nc(C)nn2C1c1ccc(OC)c(OC)c1 (stereo not given)	?	1%	7	1%
(continued)
SMILES	Rango-impB inh	Rango release inh	GLA inh pH 4.5	miR-21 FLuc
CCn1cc(/C=C(\NC(=O)c2ccccc2)C(=O)NCCCN2CCOCC2)c2ccccc21	-2.0%	1%	.	-2%
COc1ccccc1-n1c([S-])c(C(=O)Nc2ccccc2C(F)(F)F)[n+]2ccc(C(=O)NCCO)cc12	?	?	-21	0%
COCCCNC(=O)CN(CCc1ccccc1)S(=O)(=O)c1ccccc1	6.9%	16%	4	-3%
O=C1Nc2ccc([N+](=O)[O-])cc2C1(O)N1CCCCCC1 (stereo not given)	0.5%	-5%	-5	0%
CCOCCn1c(SCc2c(F)cccc2Cl)nc2c1c(=O)[nH]c(=O)n2C	-0.6%	15%	2	-7%
COc1ccccc1Nc1nc(C)nc2c1oc1ccccc12	-3.0%	-8%	.	3%
COc1ccc(C(CC(=O)N2CCCC2)C(C)C)cc1 (stereo not given)	0.6%	1%	.	-2%
Cc1sc(NC(=O)c2ccco2)c(C(c2cccnc2)N2CCC(C)CC2)c1C (stereo not given)	0.3%	-10%	1	24%
O=C(Nc1ccc(C(=O)O)cc1)/C(=C\c1ccccc1)NC(=O)c1ccccc1	0.7%	5%	.	-1%
Cc1ccccc1-n1nc2c(c1NC(=O)c1cccc(F)c1)CS(=O)C2 (stereo not given)	-3.6%	17%	-2	-1%

Molecules shown so far with a COOH group:
SMILES	Rango-impB inh	Rango release inh	GLA inh pH 4.5	miR-21 FLuc
Cc1cccc(C)c1OCC(=O)NC(Cc1c[nH]c2ccccc12)C(=O)O (stereo not given)	1.0%	25%	-11[21.1 µM]	-1%&-14%
O=C(O)COc1ccc(-c2nnn(CC(=O)O)n2)cc1	-4.7%	4%	5	-4%
CC(=O)OCC1=C(C(=O)O)N2C(=O)C(NC(=O)C(C)Cn3nc(C)c(Cl)c3C)C2SC1 (stereo not given)	0.8%	-5%	-1[21.1 µM]	0%
O=C(Nc1ccc(C(=O)O)cc1)/C(=C\c1ccccc1)NC(=O)c1ccccc1	0.7%	5%	.	-1%

In another format: 4 of the compounds above
SMILES | Rango-impB inh | Rango release inh | GLA inh pH 4.5 | miR-21 FLuc
COc1ccccc1Nc1nc(C)nc2c1oc1ccccc12 | -3.0% | -8% | . | 3%
COc1ccc(C(CC(=O)N2CCCC2)C(C)C)cc1 (stereo not given) | 0.6% | 1% | . | -2%
Cc1sc(NC(=O)c2ccco2)c(C(c2cccnc2)N2CCC(C)CC2)c1C (stereo not given) | 0.3% | -10% | 1 | 24%
O=C(Nc1ccc(C(=O)O)cc1)/C(=C\c1ccccc1)NC(=O)c1ccccc1 | 0.7% | 5% | . | -1%

Next section:
SMILES	Rango-impB inh	Rango release inh	GLA inh pH 4.5	miR-21 FLuc
C=CCNC(=O)NC(=O)COC(=O)/C(C#N)=C/c1cc(C)n(CCC(C)C)c1C	1.4%	-14%	-1	-5%
O=[N+]([O-])c1ccc(COP(=O)(O)OCc2ccc([N+](=O)[O-])cc2)cc1	-3.9%	-2%	.	.
c1ccc(N2CCCCC2)c(Nc2nc3ccccc3n3cnnc23)c1	-0.6%	-12%	-6	3%
CC(c1ccc(F)cc1)n1c(-c2cccs2)n[nH]c1=S (stereo not given)	-1.6%	6%	4	-9%
COc1ccc(C(CCO)NC(=O)c2cccs2)cc1OC (stereo not given)	1.2%	0%	-13	0%
CCc1ccc(OCC(=O)N/N=C/c2cc([N+](=O)[O-])ccc2N2CCOCC2)cc1	-1.3%	0%	-8	-6%
O=C(CN1CCN(S(=O)(=O)/C=C/c2ccccc2)CC1)Nc1ccc(N2CCOCC2)cc1	2.2%	40%	0	-2%
O=C(CN1CCN(C(=O)C2CCCO2)CC1)Nc1ccc(F)cc1 (stereo not given)	1.0%	15%	.	-1%
CC(Oc1ccc(Br)cc1)c1nc2c3ccccc3nc(=S)n2[nH]1 (stereo not given)	-0.3%	-6%	12	?
CCCOc1c(Cl)cc(C(=O)Nc2ccc3c(c2)OCO3)cc1OCC	5.5%	2%	-2	17%
COC(=O)c1cc2n(n1)CCN(Cc1ccc(F)cc1)C2=O	1.3%	9%	-9	1%
CC(=O)N1CC(C)Oc2ccc(S(=O)(=O)NC(CC(=O)O)c3cc(C)ccc3C)cc21 (stereo not given)	-3.2%	-12%	.	-1%
Cc1ccc2c(CN(C)Cc3cccc(Cl)c3)cc(=O)oc2c1C	3.6%	6%	.	2%
Oc1[nH]c2ccccc2c1N=Nc1ccccc1F	?	?	-6	-70%
CN(C)S(=O)(=O)c1cccc(NC(=S)NC(=O)c2ccco2)c1	1.2%	7%	.	.
C=CCN(C(=O)c1csnn1)C(C(=O)NCc1ccccc1)c1c(F)cccc1Cl (stereo not given)	0.1%	12%	.	-5%
O=C(Nc1cc(S(=O)(=O)N2CCOCC2)ccc1Cl)C(=O)c1c(-c2ccccc2)cc2ccccn12	-0.4%	-22%	-6	1%
CCc1cc2c(=O)n(Cc3ccco3)c(SCC(=O)NCC3CCCO3)nc2s1 (stereo not given)	1.3%	1%	.	7%
CCn1c(SCC(=O)Nc2ccc(C)cc2)nnc1-c1cnccn1	7.0%	-27%	.	3%
CN(CC(=O)Nc1cccc(F)c1)C(=O)c1ccc(N2C(=O)c3ccccc3C2=O)cc1	-0.9%	-3%	.	.
COc1ccccc1NC(=O)COC(=O)CCn1c(C)csc1=O	-2.5%	25%	.	.
CCC1CCCCN1C(=O)CCS(=O)(=O)c1ccccc1 (stereo not given)	-1.9%	-13%	.	-48%
CC(C)NC[C@@H](O)COc1ccc(CC(N)=O)cc1	-1.6%	-16%	.	.
O=C(Nc1cccc(C(=O)NC2CC2)c1)c1ccc(Cl)c(S(=O)(=O)N2CCOCC2)c1	-3.3%	1%	.	.

Nothing new here: entries from further up.
SMILES	Rango-impB inh	Rango release inh	GLA inh pH 4.5	miR-21 FLuc
Cc1cccc(C)c1OCC(=O)NC(Cc1c[nH]c2ccccc12)C(=O)O (stereo not given)	1.0%	25%	-11[21.1 µM]	-1%&-14%
CCOC(=O)CN=C/C(C(C)=O)=C(/C)O	-1.9%	4%	2	1%
Cc1nnc(NC(=O)CCSCCC(=O)Nc2nnc(C)s2)s1	-2.7%	6%	4	2%

From PubChem BioAssay
